# Mtb betalactam = beta-lactam sensitization of Mtb H37Rv, H37Rv | M. tuberculosis H37Rv growth with meropenem, percent inhibition; hits of this screen are not shown here | inhibition, % at 25 µM | 0.27% of 330,000 active;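 active means about 74% or more and at least 40 points above the plate without the antibiotic, then above 30% in a dose series; inconclusive means first-round hits that could not be retested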;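 further: growth measured after seven days incubation then overnight dye step; 0% = bacteria only wells and 100% = bacteria with antibiotic; twin plates without the antibiotic show which effects depend on it; some results filed as inactive read as strong as hits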
# Mtb growth = M. tuberculosis H37Rv growth inhibitors, H37Rv strain (AID 1626). M. tuberculosis H37Rv growth inhibition; higher % means a stronger effect. 0.95% of 220,000 active. inhibition, % at 10 µM; hits with a dose series show IC50 in µM;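 active means confirmed in a dose series; inconclusive means inhibition above 80% but not taken into the dose series; inactive means below 80% or under 30% at every dose of the series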;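 further: bacteria incubated seven days before Alamar blue readout; 0% = bacteria only wells and 100% = bacteria with antibiotic wells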
# Arbovirus anti = antivirals against arbovirus infection, primary screen, cell-based, full library, 10K replicate subset; 0.37% of 200,000 active; AID 1251, 2008; arbovirus infection cell-based antiviral screen; inhibition, % at 10 µM;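 active means inhibition from about 30%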;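 further: bluetongue infection of BSR cells; cell survival read as ATP light after 72 h; 0% = infected wells without compound and 100% = uninfected wells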
# YopH PTP inh = YopH tyrosine phosphatase inhibitors, primary screen, biochemical, fluorescence Ex485/Em525. YopH tyrosine phosphatase [Yersinia enterocolitica]. inhibition, %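 (about 10 µM by stock and volumes)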. 0.16% of 140,000 active;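 active means inhibition of 50% or more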;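 further: controls were vehicle for no effect and minimum signal wells for full effect; inactives centre near -20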
# RecA splice inh = Mtb RecA intein splicing inhibitors, primary screen, biochemical, fluorescence, HTS. AID 2221, 2009. 0.75% of 290,000 active. inhibition, %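 (about 9 µM by stock and volumes)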. cell-free RecA intein splicing. Protein RecA (Mycobacterium tuberculosis (strain ATCC 25618 / H37Rv)), P9WHJ3; in the data active means inhibition above about 30%; inconclusive means no clear call, values can overlap the other calls;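 further: 0% = vehicle wells and 100% = reference inhibitor control wells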
# Target sequence (P9WHJ3 whole entry, looked up, canonical isoform): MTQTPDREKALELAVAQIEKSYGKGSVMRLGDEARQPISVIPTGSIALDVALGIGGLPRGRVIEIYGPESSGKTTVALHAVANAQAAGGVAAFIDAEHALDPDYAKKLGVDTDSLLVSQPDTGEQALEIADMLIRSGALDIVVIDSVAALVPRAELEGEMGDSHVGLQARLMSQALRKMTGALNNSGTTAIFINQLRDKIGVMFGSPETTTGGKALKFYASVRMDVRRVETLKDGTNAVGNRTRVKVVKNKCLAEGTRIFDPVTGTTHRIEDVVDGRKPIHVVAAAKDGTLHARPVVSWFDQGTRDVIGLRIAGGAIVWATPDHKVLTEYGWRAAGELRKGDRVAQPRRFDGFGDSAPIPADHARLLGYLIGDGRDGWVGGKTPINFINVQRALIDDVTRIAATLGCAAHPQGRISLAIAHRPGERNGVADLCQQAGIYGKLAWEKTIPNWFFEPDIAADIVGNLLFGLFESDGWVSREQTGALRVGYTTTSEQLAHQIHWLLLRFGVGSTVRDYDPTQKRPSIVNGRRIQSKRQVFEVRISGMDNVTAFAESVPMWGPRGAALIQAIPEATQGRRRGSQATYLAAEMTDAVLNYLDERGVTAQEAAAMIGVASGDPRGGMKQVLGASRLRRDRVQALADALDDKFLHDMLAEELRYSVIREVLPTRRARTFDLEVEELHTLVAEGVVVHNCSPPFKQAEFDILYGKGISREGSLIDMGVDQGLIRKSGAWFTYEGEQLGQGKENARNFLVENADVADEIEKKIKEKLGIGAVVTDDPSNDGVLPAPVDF
# Arbovirus anti repeat = second read-out of Arbovirus anti, no call of its own (marks repeat the call); inhibition, %; measured here: 10K subset replicate screen; many hits read low in the repeat;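 first of two repeat runs on a subset; 0% = infected and 100% = uninfected wells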
# * marks the source's active call; other numbers are inactive results; ? = inconclusive; nt = not tested or not shown.
SMILES,Mtb betalactam,Mtb growth,Arbovirus anti,YopH PTP inh,RecA splice inh,others
O=[N+]([O-])c1ccc2oc(-c3cccc(O)c3)nc2c1,38.8,71.3%,0.3,nt,3.2,
CSc1cccc(NC(=O)CSc2nnc(C)s2)c1,95.8,97.1µM*,-19.7,-31.7,-0.6,
Cc1cc(Nc2n[nH]c(N)c2C#N)ccc1F,-7.2,-2.0%,-6.5,nt,0.6,
CCCn1c(=O)c2sccc2n2c(CCCC(=O)NCc3ccco3)nnc12,-3.0,nt,nt,nt,3.9,
CCn1c(SCC(=O)NC2CC2)nnc1-c1ccccc1OC,-2.5,nt,nt,nt,0.8,
O=C(CC1Nc2c3ccccc3nc(=S)n2C1=O)NC1CCCCC1 (stereo not drawn),-5.2,-4.6%,-1.9,nt,-3.1,
O=C(NCc1ccccc1)c1nc(-c2cccs2)no1,-0.1,6.1%,-13.6,nt,1.3,
O=C(CSC1=Nc2ccccc2C2=NC(CC(=O)N3CCN(c4ccccc4)CC3)C(=O)N12)NCC1CCCO1 (stereo not drawn),3.1,-4.0%,5.8,nt,1.2,
O=C(Cc1cc(=O)[nH]c(=O)[nH]1)N1CCC(Cc2ccccc2)CC1,-5.8,4.2%,1.9,-4.8,-0.3,Arbovirus anti repeat=8.8
CC1=C(C(=O)NC(C)c2ccccc2)C2(CCC(C)CC2)OC1=O (stereo not drawn),-6.2,-4.9%,nt,nt,2.8,
CCCCNC(=O)Oc1cc(CCl)on1,89.7,-0.1%,5.9,nt,0.7,
Oc1c(N=Nc2ccc(F)cc2)ccc2ccccc12,31.5,nt,nt,nt,26.1,
CN(CCc1cnn(C)c1)Cc1nc(Cc2ccccc2)no1,4.3,1.1%,5.3,nt,1.9,
CCCN(S(=O)(=O)c1ccc(OCC)cc1)S(=O)(=O)c1cccs1,0.5,-1.6%,-0.7,8.1,1.3,
Cc1sc2ncnc(N=Nc3c(O)[nH]c4ccccc34)c2c1C,2.2,0.9%,-15.5,14.8,2.5,
O=C(CSc1nc2ccccc2[nH]1)NCCN1CCCCC1,-0.7,2.7%,-1.2,-38.4,-1.2,
CCOC(=O)c1ccc(NC(=O)CC2SC3=NCCN3C2=O)cc1 (stereo not drawn),-2.8,0.3%,nt,nt,-1.7,
Cc1ccc[n+](CC2OCc3ccccc3CO2)c1,-1.8,-2.4%,5.0,nt,6.4,
S=c1[nH]nc(-c2cc(-c3ccco3)[nH]n2)n1-c1ccccc1,-3.3,1.2%,3.0,-34.3,5.6,
Nc1cc(=O)[nH]c(SCCNS(=O)(=O)c2ccccc2)n1,-4.6,-6.1%,5.5,-36.9,-0.7,
CCOC(=O)Cn1cnc2c(cnn2-c2ccc(Cl)cc2)c1=O,9.5,-3.9%,6.6,-43.2,1.5,
CCn1nc(C(=O)OCC(=O)c2c[nH]c3ccccc23)c2ccccc2c1=O,4.7,-15.5%,6.9,-31.1,-8.2,
CCC(=O)OCCNc1cc(SCCC(=O)OC)c2nonc2c1[N+](=O)[O-],100.0,12.2µM*,-6.6,-13.6,45.3*,
S=C(NNc1ccc2ccccc2c1)NC1CCCCC1,nt,66.3%,-33.2,-12.5,2.4,
O=C(CSc1cc(Cl)ccc1Cl)NCC(=O)Nc1ccc(F)c(F)c1F,9.0,5.9%,-9.4,-25.6,-0.8,
Cc1cc(NC(=O)c2cc([N+](=O)[O-])cc([N+](=O)[O-])c2C)no1,-9.6,-5.5%,6.0,nt,-3.9,
CCC(C(=O)Nc1ccccc1C(=O)N1CCOCC1)N1C(=O)c2ccccc2C1=O (stereo not drawn),-1.3,-7.4%,6.7,-17.8,-4.3,
CC(=O)N=c1sc2ccccc2n1C,-9.8,-3.1%,-10.0,-11.9,0.7,
CCOc1ccc(-c2nn(-c3ccccc3)cc2/C=C2\SC(N)=NC2=O)cc1C,26.9,-7.3%,-16.9,-33.8,-18.6,
Cn1cnnc1SCc1ccccc1[N+](=O)[O-],-0.4,-5.6%,nt,nt,3.1,
O=C(c1ccco1)N1N=C2CCCCCC2C1(O)C(F)(F)F (stereo not drawn),-2.1,-9.5%,7.7,nt,3.5,
O=C(Cn1cc([N+](=O)[O-])ccc1=O)N1CCCc2ccccc21,-1.0,nt,nt,nt,-5.0,
O=C(c1ccc(N2CCCC2)c([N+](=O)[O-])c1)N1CCN(S(=O)(=O)c2ccc(Cl)cc2)CC1,-3.2,nt,nt,nt,-5.3,
Cc1cccc(NC(=S)NNC(=S)NC2CCCCC2)c1C,-1.6,2.4%,4.2,nt,-5.4,
COc1ccc(C(=O)CC2OC(=O)c3c2ccc(OC)c3OC)cc1 (stereo not drawn),-12.9,-10.1%,6.8,-36.8,-0.6,
Cc1ccc([C@@H]2[C@@H]3C(=O)N(c4ccccc4)C(=O)[C@@H]3[C@]3(C)C(=O)N(Cc4ccccn4)CC(=O)N23)o1,-4.4,nt,nt,nt,0.7,
Cc1cc(/C=C2\C(=O)NC(=O)N(c3ccc(Br)cc3)C2=O)c(C)n1C,37.7,-6.1%,1.4,nt,-1.9,
CC(C)Nc1nc(N(c2ccccc2)c2ccccc2)nc(-n2ccnc2)n1,-7.5,nt,0.9,-27.0,nt,
CC(Oc1ccccc1)C(=O)N1CCC2(CC1)Oc1ccc(F)cc1C(=O)C21CC(c2ccccc2)=NO1 (stereo not drawn),28.5,-2.0%,nt,nt,7.2,
Cn1cc(S(=O)(=O)NCc2ccc3c(c2)OCO3)c(C(F)(F)F)n1,-0.8,nt,nt,nt,-0.8,
CC(C)CC(NC(=O)COc1ccccc1)C(=O)O (stereo not drawn),5.1,nt,9.6,-57.9,-0.7,
CCOc1cc(/C=N/NC(=O)c2ccncc2)ccc1OC(=O)c1ccc([N+](=O)[O-])cc1,98.8,?,7.1,-33.4,0.9,
CCOc1ccc(-c2nn(-c3ccccc3)cc2/C=C(\C#N)S(=O)(=O)c2ccccc2)cc1C,3.2,-8.3%,13.0,-21.4,-45.9,
Cc1cc2c(cc1S(=O)(=O)N1CCc3ccccc31)NC(=O)CO2,-3.4,1.6%,3.2,nt,1.3,
COC(=O)C1=CN(c2ccc(OC)cc2)C=C(C(=O)OC)C1c1ccc(C)c([N+](=O)[O-])c1,1.8,0.1%,-7.3,-14.4,0.9,
COCCC(=O)N1CCC(Oc2ccc(C(=O)NC3Cc4ccccc4C3)cc2)CC1,-1.0,nt,nt,nt,7.5,
CCCCNC(=O)NNC(=O)COc1cc(C)cc(C)c1,3.3,-0.1%,-0.9,-23.5,1.3,
Cc1ccc(C)c(N(CC(=O)NC2CCCCC2)C(=O)c2csnn2)c1,-0.2,nt,nt,nt,-0.2,
CC(=O)N1CCN(C(=O)COc2ccc(Br)cc2)CC1,-4.1,-18.1%,4.2,15.8,0.4,
N/C(Cc1ccc([N+](=O)[O-])cc1)=N\OC(=O)Cc1ccc(Cl)cc1,2.6,10.5%,-2.3,-11.9,3.9,
CS(=O)(=O)NCCSc1nnnn1-c1ccccc1,-9.3,1.0%,-1.3,-12.9,-1.8,
COc1ccc(NC(=O)CN2CCN(CC(=O)Nc3ccc(F)cc3)CC2)c(OC)c1,-9.9,nt,nt,nt,-4.9,
CCC(C)NCCCOc1c(C)cc(C)cc1Br (stereo not drawn),-0.1,5.8%,-15.4,1.7,0.4,
CC(=O)C1=C(O)C(=O)N(CCc2c[nH]c3ccccc23)C1c1ccc(O)cc1 (stereo not drawn),-6.6,-7.5%,6.0,-44.3,-1.8,
CC1CCC(NC(=O)C(=O)Nc2ccc3c(c2)OCO3)CC1 (stereo not drawn),1.0,nt,nt,nt,1.6,
CCc1csc(CCNC(=O)C2CCC(=O)N(CCOC)C2)n1 (stereo not drawn),2.1,nt,nt,nt,-1.6,
COc1ccc(S(=O)(=O)N2CCSC2)cc1C,3.3,3.1%,-4.5,-24.5,0.4,
O=C(NCCNc1ccc([N+](=O)[O-])cc1C(F)(F)F)c1ccc(F)cc1,5.2,8.1%,9.4,-11.1,1.5,
CCOc1ccc(C(=O)Nc2ccccc2OC(F)F)cc1,-9.1,-1.3%,-5.8,nt,-0.4,
Cc1ccccc1-c1noc(CNC(=O)c2ccco2)n1,4.3,nt,nt,nt,-2.7,

# Overlap with the part before: 2 entries, followed by the next part.
SMILES,Mtb betalactam,Mtb growth,Arbovirus anti,YopH PTP inh,RecA splice inh,others
CCOc1ccc(C(=O)Nc2ccccc2OC(F)F)cc1,-9.1,-1.3%,-5.8,nt,-0.4,
Cc1ccccc1-c1noc(CNC(=O)c2ccco2)n1,4.3,nt,nt,nt,-2.7,
Cc1ccccc1Nc1nc(N)c2ccccc2n1,-4.2,1.3%,-2.5,nt,1.3,
COc1ccccc1OCCC(=O)OCC(=O)NC(C)c1ccccc1 (stereo not drawn),-1.6,-0.5%,0.8,-23.4,-0.1,
Cc1ccc(C(=O)Nc2ccc(C(=O)O)cc2)cc1S(=O)(=O)NCc1ccccc1,-6.9,-5.0%,-1.6,nt,3.2,
C=C(C)C(=O)OCC(O)COc1ccc(C(C)(C)c2ccc(OCC(O)COC(=O)C(=C)C)cc2)cc1 (stereo not drawn),50.1,nt,nt,nt,8.6,
O=C(N/N=C/c1ccnc2ccccc12)c1ccccc1O,4.8,nt,nt,nt,-0.9,
CCOC(=O)CNC(=O)c1c2c(nc3ccccc13)CCCC2,4.2,-7.8%,-3.6,-6.9,-1.4,Arbovirus anti repeat=-0.6
O=C(O)c1coc2ccccc12,-2.5,-2.6%,11.5,-34.7,-4.4,
CCOC(=O)c1cc(-c2ccc(C)cc2)n(CCC(=O)N2CCN(c3ccccn3)CC2)c1C,nt,9.1%,-16.4,-21.2,10.4,
CCCCN(Cc1ccccc1)C(=O)c1cnc2n(c1=O)CCS2,0.7,3.1%,6.1,-12.1,-0.9,
O=C(c1sc2ccccc2c1Cl)N1CCC2(CC1)OCCO2,-13.7,-4.0%,-1.2,1.2,2.1,
S=C1NCN(Cc2cccnc2)CN1,-3.6,-13.3%,nt,nt,-0.3,
CC(C)CCn1c(N)c(S(=O)(=O)c2cccs2)c2nc3ccccc3nc21,52.8,49.3%,1.0,-4.3,-0.9,
CCCN(CC(=O)Nc1ccccc1C)C(=O)c1ccc(N2CCCCC2)c([N+](=O)[O-])c1,2.9,nt,nt,nt,3.1,
COc1ccc(C)cc1S(=O)(=O)N1CCN(c2cccc(C(F)(F)F)c2)CC1,7.8,-1.6%,-16.2,-26.9,nt,
O=C(c1ccccc1)c1c[nH]c(C(=O)NCc2cccnc2)c1,30.2,-9.5%,2.4,6.8,1.2,
CNC(=O)c1c(C)[nH]c(=S)c(C#N)c1-c1ccco1,-2.2,nt,nt,nt,1.8,
Cc1ccccc1C(=O)N1CCC(C(=O)NC2CCCC2)CC1,-4.0,nt,nt,nt,-0.6,
CN1CCN(NC(=O)COc2cccc(C(F)(F)F)c2)CC1,0.9,-1.2%,-8.2,-29.4,0.8,
CCCCc1nc2ccccc2c(=O)n1-c1ccccc1O,-3.3,0.2%,1.4,-17.3,1.4,
O=C(O)COc1cccc(NC(=O)C2CCCO2)c1 (stereo not drawn),-19.8,-7.2%,1.9,18.1,-5.7,

# Gathered by group: the compounds so far containing a nitro group on carbon (11)
SMILES,Mtb betalactam,Mtb growth,Arbovirus anti,YopH PTP inh,RecA splice inh,others
O=[N+]([O-])c1ccc2oc(-c3cccc(O)c3)nc2c1,38.8,71.3%,0.3,nt,3.2,
CCC(=O)OCCNc1cc(SCCC(=O)OC)c2nonc2c1[N+](=O)[O-],100.0,12.2µM*,-6.6,-13.6,45.3*,
Cc1cc(NC(=O)c2cc([N+](=O)[O-])cc([N+](=O)[O-])c2C)no1,-9.6,-5.5%,6.0,nt,-3.9,
Cn1cnnc1SCc1ccccc1[N+](=O)[O-],-0.4,-5.6%,nt,nt,3.1,
O=C(Cn1cc([N+](=O)[O-])ccc1=O)N1CCCc2ccccc21,-1.0,nt,nt,nt,-5.0,
O=C(c1ccc(N2CCCC2)c([N+](=O)[O-])c1)N1CCN(S(=O)(=O)c2ccc(Cl)cc2)CC1,-3.2,nt,nt,nt,-5.3,
CCOc1cc(/C=N/NC(=O)c2ccncc2)ccc1OC(=O)c1ccc([N+](=O)[O-])cc1,98.8,?,7.1,-33.4,0.9,
COC(=O)C1=CN(c2ccc(OC)cc2)C=C(C(=O)OC)C1c1ccc(C)c([N+](=O)[O-])c1,1.8,0.1%,-7.3,-14.4,0.9,
N/C(Cc1ccc([N+](=O)[O-])cc1)=N\OC(=O)Cc1ccc(Cl)cc1,2.6,10.5%,-2.3,-11.9,3.9,
O=C(NCCNc1ccc([N+](=O)[O-])cc1C(F)(F)F)c1ccc(F)cc1,5.2,8.1%,9.4,-11.1,1.5,
CCCN(CC(=O)Nc1ccccc1C)C(=O)c1ccc(N2CCCCC2)c([N+](=O)[O-])c1,2.9,nt,nt,nt,3.1,

# Screening data deposited in PubChem by several laboratories.

# Not all compounds are listed. The share of hits here may be higher or lower than overall.
